VDR inh: vitamin D3 receptor (human) inhibition. VDR-SRC2-3 peptide fluorescence polarization, 2 h. Potency, µM, for the others: max response, negative = inhibition, most hits filed as inhibitors. 0.93% of 400,000 active. AID 504847; active means well fitted inhibition curve with a large enough effect; inconclusive means small, poorly fitted or top-dose-only effect, or another doubt; inactive means no such curve, though single readings can be large or run the other way; further: series mostly up to about 120 µM
Target sequence (P11473 whole entry, looked up): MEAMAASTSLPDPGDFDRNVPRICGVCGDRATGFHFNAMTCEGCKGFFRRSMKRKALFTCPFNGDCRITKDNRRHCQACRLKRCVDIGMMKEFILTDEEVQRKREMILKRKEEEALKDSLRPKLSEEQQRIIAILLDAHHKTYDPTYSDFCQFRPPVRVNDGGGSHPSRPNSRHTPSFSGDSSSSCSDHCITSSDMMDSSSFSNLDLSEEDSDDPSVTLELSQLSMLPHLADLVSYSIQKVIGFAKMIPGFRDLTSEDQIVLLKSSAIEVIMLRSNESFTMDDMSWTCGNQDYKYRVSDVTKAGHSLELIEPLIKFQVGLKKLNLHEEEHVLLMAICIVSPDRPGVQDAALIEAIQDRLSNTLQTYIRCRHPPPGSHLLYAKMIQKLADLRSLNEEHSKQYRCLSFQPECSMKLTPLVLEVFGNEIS
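After 23 nl compound addition and a short centrifugation, plates sat for 2 hours at ambient temperature; polarization of fluorescence then indicated loss of VDR binding to peptide SRC2-3.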
Starred values were filed as active, the others as inactive; ? = inconclusive; & = joins results of further samples. On the % scale 0 is the no-effect control and ±100 the full control effect; potency means the concentration at half of the fitted maximal effect.

#	VDR inh	mol
1	-1%	CCOc1ccc(N2C(=O)S/C(=C\c3cc(OC)c(OC)c(OC)c3)C2=O)cc1
2	15%	CCCN1C(C(=O)c2ccccc2)=C(OC(=O)c2ccc(C)cc2)c2ccccc2S1(=O)=O
3	2%	COc1cc2c(cc1OC)C(CC#N)=NC(C)(C)C2
4	-2%	O=C(Cc1ccccc1)c1ccc(Cl)cc1
5	-3%	Cc1onc(-c2c(F)cccc2Cl)c1C(=O)NC(C)c1ccccc1 (stereo not given)
6	-20%	Cc1cccc(NC(=O)Nc2cnccn2)c1
7	2%	CCOCCCn1c(=S)[nH]c2cc(C(=O)NCCOC)ccc2c1=O
8	6%	Cc1ccc(N(CC(=O)N2CCOCC2)S(=O)(=O)c2ccccc2)cc1
9	-7%	O=C(C1=C(O)C(=O)N(CCOCCO)C1c1cccc([N+](=O)[O-])c1)c1cccs1 (stereo not given)
10	-20%	CCN=C1S/C(=C\c2sccc2C)C(=O)N1CC
11	0%	Cc1cccc(N(C)S(=O)(=O)c2c(C(=O)N3CCCCCC3)c(C)n(C)c2C)c1
12	8%	C/C=C/C=[N+](\[O-])C(C)/C(=N/O)c1ccc(F)cc1 (stereo not given)
13	-5%	Oc1ccccc1-c1cc(C(F)(F)C(F)F)nc(-c2ccccc2)n1
14	13%	Cc1ccc(N2CCN(C(=O)N3CCCC3)CC2)cc1Cl
15	8%	CCCc1ccc(C(=O)O/N=C(\N)c2ccccn2)cc1
16	-4%	Cc1cc(C)n(CC(=O)Nc2cccc(C(F)(F)F)c2)n1
17	8%	CN(C)CCN(Cc1ccco1)C(=O)c1oc2ccccc2c1NC(=O)c1cccc(F)c1
18	22%	CCOc1ccc(-c2c(C)nn3c(C)c(C(=O)NCc4ccc(C)o4)cnc23)cc1OCC
19	-11%	Cc1ccc(C2CC(c3cccs3)n3nc(N)nc3N2)cc1 (stereo not given)
20	-2%	O=C(COC(=O)c1cccnc1Cl)Nc1ccc(N2CCCCC2)cc1
21	11%	COc1ccc(C(=O)c2ccc(OC)cc2OC)cc1
22	24%	O=C(Cc1ccccc1)NCC(=O)N/N=C/c1cccs1
23	-17%	COc1cc(C2(c3ccc(O)c(OC)c3)C(=O)Nc3c(Br)cc(Br)cc32)ccc1O
24	-9%	CC(C(=O)N1CCOCC1)N1C(=O)c2cccc3cccc(c23)C1=O (stereo not given)
25	-12%&-14%	CN1CCSc2ccc(C(=O)NCc3ccccc3)cc21
26	29%	CC(=O)Nc1ccc(-c2ccc(NC(C)=O)c(O)c2)cc1O
27	11%	Cc1cc(C)n2nc(C(=O)Nc3ccc4c(c3)OCO4)cc2n1
28	-11%&1%	COc1ccc(S(=O)(=O)Nc2cccc(-c3ccc(N4CCCCCC4)nn3)c2)c(OC)c1
29	-4%	COc1ccc(C(=O)C2CCCN(C(=O)Cc3c(C)noc3C)C2)cc1OC (stereo not given)
30	1%	O=C(CC1C(=O)NCCN1Cc1cccc(Oc2ccccc2)c1)NCCn1cccn1 (stereo not given)
31	-2%	C[N+]1(CC2COC3(CCCCC3)O2)CCCC1 (stereo not given)
32	12%	O=C(Nc1ccccc1)c1cccc(C(=O)Nc2ccccc2)n1
33	10%	N#CC(c1ccccc1)c1ccc(=O)[nH]n1 (stereo not given)
34	6%	O=c1cc2c(n[nH]1)-c1ccccc1CC2
35	0%	COc1ccccc1NC(=S)NCc1ccccc1Cl
36	1%	Cc1c2cnn(CC(=O)Nc3cccc(C(F)(F)F)c3)c(=O)c2c(C)n1Cc1ccccc1Cl
37	-9%	CC1CCN(S(=O)(=O)c2ccccc2)CC1
38	-17%	CCOC(=O)c1[nH]c2c(c1Cc1ccccc1)C(=O)CC(c1ccc(Cl)cc1)C2 (stereo not given)
39	-9%	Cn1c(NC(=O)c2ccc(F)cc2)c(-c2cccs2)c(=O)c2ccccc21
40	18%	CCc1cc(C(=O)N(CC)CC(=O)Nc2ccc(OC)cc2)sc1C
41	-11%	O=[N+]([O-])c1ccc(Cl)c(/C=N/n2c(-c3ccncc3)n[nH]c2=S)c1
42	-6%	COc1cccc(C(=O)Nc2ccc(N3CCN(C(=O)c4cccs4)CC3)cc2)c1
43	?	COc1ccc(Oc2nc3c(C)cccn3c(=O)c2/C=C(\C#N)C(N)=O)cc1
44	-9%	Cc1cc(OCC(=O)N2CCCC2)ccc1Cl
45	24%	O=C(CSc1nnnn1-c1ccc2c(c1)OCCO2)OC1CCCCC1
46	9%	Cc1nc2ccc(F)cc2cc1C(=O)NC(C)C
47	2%	COC(=O)CCCC1=CC2=CC(=O)C(C)(OC(=O)c3ccco3)C(=O)C2=CO1 (stereo not given)
48	7%	C(=N\NC1=Nc2cccc3cccc1c23)/c1ccccc1
49	5%	COc1ccc(N(CC(=O)Nc2cccc(C(C)=O)c2)S(=O)(=O)c2ccccc2)c(OC)c1
50	-13%	O=C(O)c1cn(-c2ccccc2)nc1-c1ccncc1

(next part)
#	VDR inh	mol
51	-22%	COc1ccc(-c2nn(-c3ccccc3)cc2CNC[C@H]2O[C@@H](n3cnc4c(N)ncnc43)[C@H](O)[C@@H]2O)cc1
52	-6%	Cc1nn(-c2ccc(F)cc2)c(-n2cccc2)c1C(=O)N1CCN(c2ccccc2F)CC1
53	-14%	CC(C)Oc1cccc(C(=O)C2CCCN(C(=O)CCc3cnn(C)c3)C2)c1 (stereo not given)
54	-10%	O=C(N=C1c2ccccc2CN1c1ccc(F)cc1)c1ccc(Cl)nc1
55	-3%	COc1ccccc1N(CC(=O)NCCSc1ccccc1)S(=O)(=O)c1ccc(C)cc1
56	15%	O=C(NCc1ccc(F)cc1)C1CCN(S(=O)(=O)c2ccc(Br)s2)CC1
57	?	[S-]C(=Nc1ccc(Cl)cc1)N[n+]1ccccc1
58	?	Cc1ccccc1S(=O)(=O)/N=C(/Nc1c(C)n(C)n(-c2ccccc2)c1=O)c1ccccc1
59	26%	CC(C)C[C@H](NC(=O)c1nc[nH]c1C(=O)N1CCc2ccccc2C1)C(=O)OCc1ccccc1
60	-12%	C[C@H](NC(=O)[C@@H]1CSC2c3ccccc3C(=O)N21)C(=O)NC1CCCC1 (stereo not given in full)
61	-19%	O=C(CCCSc1ccccc1)Nc1nc(-c2ccco2)c(-c2ccco2)s1
62	-7%	Cc1ccc2c(c1)N(CC(=O)N1CCCCCC1)C(=O)c1cccnc1O2
63	-14%	CC(C)(C)C1CCC(=NNC(=O)C2COc3ccccc3O2)CC1 (stereo not given)
64	4%	CCOC(=O)Cn1c(=O)c2c(nc(Br)n2Cc2ccccc2Cl)n(C)c1=O
65	-22%	Cc1cc2cc(CNC(=O)c3cccs3)ccc2[nH]1
66	-12%	CC1(C)CC(=O)C2=C(C1)OC1OC(=O)CC21C (stereo not given)
67	5%	Cc1cc(N/N=C/c2cccc(Cl)c2)nc(NCc2ccccc2)n1
68	2%	Cc1ccc(NC(=O)COc2ccc(Br)cc2CO)cc1S(=O)(=O)N1CCOCC1
69	-1%	Cc1snc(S(=O)(=O)Cc2c(Cl)cccc2Cl)c1C#N
70	-2%	COc1cccc(-c2cc(C(=O)O)no2)c1
71	2%	COC(=O)C1C2C=CC3(CN(c4ccc(Cl)c(F)c4)C(=O)C13)O2 (stereo not given)
72	-25%	COc1ccc(CCNC(=O)c2ccc3c(c2)N(Cc2ccc(F)cc2)C(=O)CS3)cc1OC
73	2%	COc1ccc([C@@H]2C[C@H]3CN(c4ccccc4)C(=O)[C@]34CCCN24)c(OC)c1OC
74	-7%	O=C(CSc1nnc(-c2ccco2)n1Cc1ccccc1)NC(=O)NCc1ccco1
75	?	C=C1C(=O)[C@@]23[C@H](O)C[C@@H]4C(C)(C)CC[C@H](O)[C@]4(C)[C@@H]2C[C@H](O)[C@@H]1[C@H]3O
76	0%	CC(NC=C1C(=O)OC(C)(C)OC1=O)C(=O)O (stereo not given)
77	5%	Cc1nc(-c2ccc(F)cc2)sc1CCNC(=O)Cc1ccc(F)cc1
78	10%	CC1CCCCN1C(=O)COC(=O)c1cccc(NS(=O)(=O)c2ccccc2)c1 (stereo not given)
79	17%	CC(=O)Nc1ccc(S(=O)(=O)NCCC(=O)NC(C)c2cccs2)cc1 (stereo not given)
80	-22%	O=C(Nc1nnc(C2CC2)s1)c1n[nH]c(=O)c2ccccc12
81	-14%	Nc1nc(Nc2ccccc2F)nc(NCCO)c1[N+](=O)[O-]
82	?	COc1cccc(Cn2c(=O)c(-c3ccccc3)nc3cnc(N4CCNCC4)nc32)c1
83	-12%	CCCc1nc(SCC(=O)Nc2ccccc2OC)c2c(=O)n(C)c(=O)n(C)c2n1
84	-3%	COc1cccc(C=NCC(C)N=Cc2cccc(OC)c2O)c1O (stereo not given)
85	5%	Cc1c(C(=O)Nc2c(F)cc(F)cc2Br)sc2ncn(CC(=O)N3CCCC3)c(=O)c12
86	-14%	CCN(CC(=O)NCc1cccs1)C(=O)c1ccc(S(=O)(=O)N(C)c2ccccc2)cc1
87	-8%	N#Cc1c(-c2ccccc2)cc(C2CC2)nc1SCC(=O)c1cccs1
88	12%	COc1ccc(OC)c(N(/C(N)=N/c2nc(C)cc(C)n2)S(=O)(=O)c2ccc(NC(C)=O)cc2)c1
89	4%	CC(SCc1ccccc1)C(=O)NCc1ccccn1 (stereo not given)
90	9%	O=C(c1ccc(-n2cccn2)cc1)N1CCN(c2ncccc2C(F)(F)F)CC1
91	-9%	COC(=O)CCCC(=O)N1CCCC(C(=O)c2ccccc2SC)C1 (stereo not given)
92	-13%	O=c1[nH]c2ccccc2c(O)c1-c1ccccc1[N+](=O)[O-]
93	10%	OCC1(CCc2ccccc2)CCN(Cc2ccc(OC(F)F)cc2)CC1
94	3%	NC(=O)c1c(NC(=O)c2ccncc2)sc2c1CCCCCC2
95	2%	CC(=O)Nc1ccc(NC(=O)c2c(C)noc2C)cc1
96	1%	COCCNC(=O)c1cc(S(=O)(=O)N2CCOCC2)ccc1SCc1cccc(OC)c1OC
97	6%	CCN1CCC2(CC1)N=C(c1ccc(F)cc1)C(=S)N2
98	-18%	Cc1ccc(OCC(=O)N2CCN(S(=O)(=O)c3ccc4c(c3)OCCO4)CC2)c(C)c1
99	14%	COc1ccc(CNC(=O)CN(c2ccc(C)cc2)S(=O)(=O)c2c(C)nn(C)c2C)cc1
100	22%&-16%	CCOC(=O)C(C)Oc1cccc2c(=O)n(CC(=O)Nc3ccc4c(c3)OCCO4)ccc12 (stereo not given)

Following part
#	VDR inh	mol
101	-5%	CCOC(=O)CC1(c2ccccc2)CCOC(C)(C)C1 (stereo not given)
102	0%	CCOc1nc(-c2ccc(OC)cc2)ccc1-c1noc(-c2ccncc2)n1
103	6%	Cc1ccc2c(CC(=O)Nc3ccc(S(=O)(=O)N4CCCCC4C)cc3)coc2c1 (stereo not given)
104	-2%	CCOC(=O)Cn1nc(C)n(-c2ccc(F)cc2)c1=O
105	4%	CCN(CC)c1ccc(NC(=O)c2ccc(Cl)nc2)cc1
106	-15%	Cc1cc2nc(C3CCN(CC4COc5ccccc5O4)CC3)[nH]c2cc1C (stereo not given)
107	1%	NS(=O)(=O)c1ccc(NC(=O)c2cccc3cc4ccccc4nc23)cc1
108	6%	CSCCC(NC(=O)c1cccc(C)c1)C(=O)Nc1sccc1C(N)=O (stereo not given)
109	0%	CC(C)[C@@H](CO)N(C)S(=O)(=O)c1ccccc1Br
110	-5%	CC(=NNc1ccc([N+](=O)[O-])cn1)c1ccccc1
111	0%	COc1ccc(C2c3[nH]c4ccccc4c3CCN2CCCn2cccn2)c(F)c1 (stereo not given)
112	-5%	Cc1noc(-c2ccccc2)c1NC(=O)Nc1ccccc1
113	4%	OCC1OC(Oc2cccc3ccccc23)C(O)C(O)C1O (stereo not given)
114	8%	CCc1ccc2[nH]c(C(=O)Nc3ccc(F)cc3Br)cc2c1
115	-7%	O=C1c2cccc3cccc(c23)N1Cc1cccc(F)c1
116	9%	CC1=C(c2ccc(C)c(C)c2)S(=O)(=O)N(Cc2ccc(C(=O)NCc3ccc(C)cc3)cc2)C1=O
117	8%	Cc1cccc(C(=O)NCC(c2ccc(F)cc2)N2CCOCC2)c1 (stereo not given)
118	-1%	O=C(CN1C(=O)c2ccccc2C1=O)Nc1ccccc1C(=O)NC1CCCCCC1
119	-6%	Cc1ccc(/C=N/NC(=O)C2COc3ccccc3O2)s1 (stereo not given)
120	12%	Cc1ccc(OCC(=O)N2CCOCC2)cc1C

An excerpt; the hit share may differ from the screen's.
